Source: PubChem
TRPV1 PAM: human TRPV1 potentiation | 320,000 compounds, 0.02% hits | Q8NER1 | TRPV1-expressing cells, Fluo-8 calcium influx, capsaicin EC20 potentiation; host cell line not named in the record; control for the full effect not named in the record | potentiation, % at 8.33 µM; active means potentiation above 80%; inconclusive means 30% to 80%; inactive means below 30%; also: 0% is about no effect
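Cells expressing TRPV1 were dye-loaded with Fluo-8 and read kinetically: 10 s baseline, 3 min after compound (agonist portion), then 2 min after EC20 capsaicin (allosteric enhancer portion). Calcium-bound dye fluorescence at 480/520 nm.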
Sfp inh: inhibitors of Bacillus subtilis Sfp phosphopantetheinyl transferase | Q9F4F7 | Biochemical Sfp PPTase activity, qHTS | Potency, µM, without a hit: max response, negative = inhibition, most hits filed as inhibitors | 310,000 compounds, 3.5% hits | AID 1490; active = well fitted inhibition curve with a large enough effect; inconclusive = small, poorly fitted or top-dose-only effect, or another doubt; inactive = no such curve, though single readings can be large or run the other way;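 also: the enzyme is Sfp with the accession as filed and its product quenches rhodamine fluorescence; potency is read from the fitted curve at half-maximal effect; 0% = enzyme reaction without inhibitor and -100% = no enzyme wells; top concentration of the series not given in the record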
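Step 1, compound plus 15 nM Sfp-PPTase, 15 min, room temperature. Step 2, add rhodamine-CoA (5 uM) and BHQ-2-YbbR (12.5 uM). Step 3, read 525/598 nm fluorescence at 0 and 30 min.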
Menin MLL FP FL: menin-MLL binding inhibition, fluorescein peptide; Fluorescence polarization, fluorescein-MLL peptide displacement from menin; FP activity change, % at 61.4 µM; 290,000 tested, under 10 active; AID 1766; inconclusive = falling polarisation curve, or a change in total fluorescence; inactive = total fluorescence flat and polarisation flat or rising; no compound was filed as active; the % refers to the polarisation; negative = inhibition;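 also: % of control where 0% means no effect; inhibitors lower the polarisation; unlabelled MLL peptide was the positive control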
TRPML1 blocker: human mucolipin-1 channel inhibition; Q9GZU1; TRPML1-inducible cells, Ca2+ dye fluorescence, FDSS; stronger effect = lower value; inhibition of EC80 agonist-evoked calcium signal; activity change, negative = inhibition, % (test concentration not listed); 390,000 compounds, 0.02% hits; AID 624415; in the data active means activity change below about -50%; inconclusive means about -30% to -50%; inactive means above about -30%;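 also: stimulus is agonist 54-4 at its EC80 concentration; % is scaled to controls: 0 for no effect and ±100 for the full control effect; compound concentration not given in the record; the text of the record puts the active cut at -80%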
Target sequence (Q9GZU1 whole entry, looked up): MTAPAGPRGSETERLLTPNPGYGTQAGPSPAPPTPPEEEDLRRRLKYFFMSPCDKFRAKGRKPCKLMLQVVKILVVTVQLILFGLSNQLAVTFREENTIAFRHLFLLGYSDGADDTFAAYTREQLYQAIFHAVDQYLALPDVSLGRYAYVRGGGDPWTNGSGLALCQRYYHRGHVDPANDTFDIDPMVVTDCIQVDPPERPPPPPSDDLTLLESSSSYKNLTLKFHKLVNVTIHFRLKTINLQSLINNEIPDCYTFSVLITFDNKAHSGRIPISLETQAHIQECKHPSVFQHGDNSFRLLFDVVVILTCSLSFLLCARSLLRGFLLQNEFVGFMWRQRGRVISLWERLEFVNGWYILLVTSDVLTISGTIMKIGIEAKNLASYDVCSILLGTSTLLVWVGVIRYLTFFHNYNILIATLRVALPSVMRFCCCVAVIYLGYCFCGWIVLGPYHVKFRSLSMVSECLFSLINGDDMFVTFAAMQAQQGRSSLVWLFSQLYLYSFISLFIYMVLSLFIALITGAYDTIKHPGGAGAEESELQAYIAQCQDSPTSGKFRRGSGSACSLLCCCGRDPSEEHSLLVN
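Tet-induced TRPML1-DL cells loaded with Ca8 no-wash calcium dye were read kinetically on FDSS. Compound addition was followed by EC80 agonist 54-4 (4 uM final); inhibition was read over 110 s.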
ClpP mod: qHTS Assay for Activators of ClpP; Potency, µM (series often up to 57.5 µM), inactives show at the top dose activity change, negative = active; 340,000 compounds, 1.9% hits; purified B. subtilis ClpP, FRET peptide cleavage, 20 min; ATP-dependent Clp protease proteolytic subunit (Bacillus subtilis (strain 168)), P80244; active = well fitted falling curve with a large enough effect; inconclusive = small, poorly fitted or top-dose-only effect; inactive = no such curve, though single readings can be large or run the other way; also: potency is read from the fitted curve at half-maximal effect; the source files actives as falling curves though it sought activators and does not explain the sign; nearly all actives have a fitted effect of over 65% in size; many hits overshoot -100%
Target sequence (P80244 whole entry, looked up): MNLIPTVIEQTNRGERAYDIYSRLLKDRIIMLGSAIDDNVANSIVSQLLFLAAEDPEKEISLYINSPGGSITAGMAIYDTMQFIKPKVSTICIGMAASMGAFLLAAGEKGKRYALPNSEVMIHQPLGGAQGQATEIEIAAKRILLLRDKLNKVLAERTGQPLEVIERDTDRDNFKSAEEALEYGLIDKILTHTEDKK
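FRET quenching reversal measured ClpP activation: 10 microg/mL B. subtilis ClpP at pH 8 with the FRET-FV decapeptide, read at 430 nm after 320 nm excitation. The 20-min minus 0-min signal was scaled between DMSO/no-enzyme wells and ADEP (5.8 microM final).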
PINK1 expr mod: changes PINK1 expression | Potency, µM (doses to about 76.6 µM), for the others: at the highest dose activation (PINK1 increase), usual class: activators | PINK1 immunofluorescence, high-content cytometry, 24 h | 410,000 compounds, 0.2% hits; active = well fitted activation curve with a large enough effect; inconclusive = small, poorly fitted or top-dose-only effect; inactive = flat fitted curve, though single readings scatter; cell line not stated here;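 also: potency is read from the fitted curve at half-maximal effect; % of control where 0% means no effect; nearly all actives have a fitted effect of over 65% in size; a mitochondrial uncoupler was the plate control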
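Cells are seeded, rested 12 hours, then given compound at five concentrations or DMSO for 24 hours. After fixation, blocking and antibody staining, PINK1 amount and mitochondrial localization are scored; CCCP serves as control.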
TRPML1 ag: activates the human TRPML1 channel | Q9GZU1 | TRPML1-expressing cells, Ca2+ dye fluorescence, FDSS; host cell line not named in the record; reference of the full effect not given here | activation, % (no concentration beside the values) | 410,000 compounds, 0.12% hits | AID 624414; in the data active = activation above about 50%; inconclusive = about 30% to 50%; inactive = below about 30%; also: 0% is about no effect; the text of the record puts the active cut at 80%
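In this qHTS format, compounds were pin-transferred onto Ca8-dye-loaded TRPML1-DL cells induced with Tet overnight, and intracellular Ca2+ fluorescence was recorded kinetically for 110 s after a 10 s baseline. A subsequent 4uM final 54-4 (EC80) addition followed by a second 110 s read served as the antagonist phase.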
An asterisk follows results filed as active; ? = inconclusive; . = not tested or not shown; & = joins results of further samples; [ ] = remark or other dose. Not a hit list, and some 4.4% of all compounds hit somewhere here.

SMILES	TRPV1 PAM	Sfp inh	Menin MLL FP FL	TRPML1 blocker	ClpP mod	PINK1 expr mod	TRPML1 ag
CCOCCCNC(=O)c1ccc(CS(=O)(=O)c2cccc(C(F)(F)F)c2)o1	-1	2%	-2.9	18	0.1%	2.1%	-1.5
CCS(=O)(=O)N1Cc2cc(C(=O)N(C)C)nc(-c3cccc(-c4ccc(F)cc4)c3)c2[C@@H]1CCO	.	.	.	.	1.3%	0.5%	-0.5
CC1C(=O)C(C)(C)C(=O)OC1c1ccccc1 (stereo not given)	25	7%	1.8	9	2.5%	1.3%	1.1
COC(=O)c1ccc(C23CC4(C2)[C@H](CN(Cc2cccnc2)[C@@H]4c2ccccc2)C3c2ccc(C(F)(F)F)cc2)cc1 (stereo not given in full)	29	-1%	1.5&4.2	10	0.3%	4.2%	0.2
COc1ccc(OCc2cc(C(=O)N3C[C@@H](C)O[C@@H](C)C3)no2)c(Cl)c1	20	4%	.	0	-1.0%	-1.2%	0.7
CCCCN1C(=O)CC(C(=O)OCC)=C1C	-9	-1%	5.7	-9	-0.8%	0.3%	3.4
Cc1nc2sccn2c(=O)c1S(=O)(=O)Nc1cccc(Cl)c1C	7	8%	-0.5	-7&13	-5.0%&-9.1%	0.0%&-0.6%	-0.1&-0.2
COc1cccc(C(=O)N2CCC[C@H]2C(=O)N2CCC[C@H]2C(=O)N(C)Cc2ccccc2)c1	.	.	.	.	2.1%	-0.2%	-0.8
Cc1cc(C(=O)O)ccc1-n1c(C)cc(/C=C(/C#N)C(=O)Nc2ccccc2)c1C	-1	-14%	?	-20	.	0.8%	-0.4
CCc1ccc(NC(=O)Cn2c(=O)n(CCCCC(=O)NCCc3ccc(Cl)cc3)c(=O)c3ccccc32)cc1	.	.	.	0	-0.7%	-0.3%	-0.4
COc1ccc(C(=O)OCC(=O)c2c[nH]c3ccccc23)cc1OC	-10	.	.	-3	0.9%	?	3.5
COC(=O)Nc1ccc(Cn2cc(C(F)(F)F)ccc2=O)cc1	7	27%	3.6	-17	.	1.8%	0.4
CCc1nnc(NC(=O)c2c(O)c3cccc4c3n(c2=O)CC4)s1	1	14%	-3.0	.	.	.	.
CC(C)CNC(=O)c1cccc2c(-c3ccc(F)c(F)c3)coc12	.	.	.	17	-4.4%	0.2%	0.2
COc1ccc(CNC(=O)C2CCN(c3nnc(N4CCCC4=O)s3)CC2)cc1	6	11%	0.3	-1	1.3%	-0.2%	-0.5
Cc1cc(S(=O)(=O)NCCCN2CCOCC2)c(Cl)cc1Cl	-2	15%	-1.0	-22	.	-1.2%	1.8
C[C@@H]1CN([C@@H](C)CO)C(=O)c2cc(C#CCN(C)C)cnc2O[C@H]1CN(C)Cc1ccc2c(c1)OCO2	.	.	.	-16	-3.2%	-0.2%	0.0
Cc1cc(NC(=O)Nc2ccccc2[N+](=O)[O-])n(C)n1	-6	14%	3.7	.	-2.3%	3.0%	.
CN(Cc1cnccn1)Cc1nc(Cc2ccccc2F)no1	6	-5%	3.1	12	.	0.2%	-0.1
CCn1cc([N+](=O)[O-])c(C(=O)Nc2ccn(Cc3ccccc3F)n2)n1	-7	14%	1.7	-14	0.3%	-3.8%[38.3 µM]	0.3
COc1cccc(-c2nc(CS(=O)(=O)CC(=O)N3CCN(c4ccccc4)CC3)c(C)o2)c1	.	.	.	-22	0.1%	0.2%	0.2
COc1ccc(OC)c(C(=O)NC(CC(N)=O)c2ccc(N3CCC(N4CCCCC4)CC3)c([N+](=O)[O-])c2)c1 (stereo not given)	-8	11%	-1.9	-12	-13%	-0.9%	-0.1
Cc1ccc(-n2c(=O)c3c4c(sc3n(CC(=O)C(C)(C)C)c2=O)CCCCC4)cc1C	.	.	.	13	1.8%	0.4%	1.3
CC1CCN(CCCn2c(SCC(=O)Nc3ccccc3Cl)nc3ccccc3c2=O)CC1	-5	7%	0.5	-6	.	-1.4%	-0.3
CCNC(=O)C1(C)CCCN1C(=O)c1ccc(-c2ccccc2)cc1 (stereo not given)	.	.	.	.	0.9%	0.0%	-0.4
Cc1cc(=O)[nH]c(-n2nc(C)c(Oc3ccccc3O)c2C)n1	-1	19%	4.6	7	-3.8%	0.3%	0.9
Cn1nccc1C(=O)N1CCC(Cc2ccccc2)CC1	-1	17%	.	13	1.8%	1.8%	-0.1
NC(=O)C1CCCN(C(=O)c2cccc(NC(=O)c3cccs3)c2)C1 (stereo not given)	22	.	.	-8	.	2.2%	-0.6
CC(=O)NCC(=O)N[C@@H](CC(=O)OCc1ccccc1)C(=O)OCc1ccccc1	-9	17%	1.3	4	0.8%	1.4%	-0.5
CC(c1ccccc1)N1CC(C(=O)O)CC1=O (stereo not given)	0	15%	3.2	-1	0.6%	3.4%	0.9
Cc1ccc(-n2cnc3cc(C(=O)NCCC4=CCCCC4)ccc32)cc1Cl	.	.	.	4	-16%	1.1%	1.8
CCCC1C(C#N)=C(N)Oc2n[nH]c(C(C)(C)C)c21 (stereo not given)	5	1%	1.0	3	1.7%	-0.4%	1.1
O=c1nc(-c2ccccc2)c2cc(SC(F)F)ccc2[nH]1	-2	17%	3.3	18	0.6%	0.0%	2.5
CCOC(=O)C1(Cc2ccc(OC)cc2)CCN(C(=O)[C@@H]2CCCN2C(C)=O)CC1	7	4%	6.0	2	-2.6%	0.7%	0.1
COc1ccc(C2CC(c3ccc(Cl)cc3)=NN2C(=O)c2cccc([N+](=O)[O-])c2)cc1 (stereo not given)	-4	-4%	1.9	14	-2.4%	-1.3%	-0.1
CC(C)C(=O)Nc1ccc2c(c1)Cc1cc(NC(=O)C(C)C)ccc1-2	7	15%	-0.2	6	-4.7%	1.4%	0.0

In the list so far, these contain a thiophene ring, fused or not:
SMILES	TRPV1 PAM	Sfp inh	Menin MLL FP FL	TRPML1 blocker	ClpP mod	PINK1 expr mod	TRPML1 ag
Cc1ccc(-n2c(=O)c3c4c(sc3n(CC(=O)C(C)(C)C)c2=O)CCCCC4)cc1C	.	.	.	13	1.8%	0.4%	1.3
NC(=O)C1CCCN(C(=O)c2cccc(NC(=O)c3cccs3)c2)C1 (stereo not given)	22	.	.	-8	.	2.2%	-0.6

Next part.
SMILES	TRPV1 PAM	Sfp inh	Menin MLL FP FL	TRPML1 blocker	ClpP mod	PINK1 expr mod	TRPML1 ag
Cc1ccc(N(CC(=O)NC2CCCC2)C(=O)CCC(=O)Nc2ccccn2)cc1	3	12%	5.7	11	.	0.1%	-0.2
O=C1OC[C@H]2CCCN2C(=O)[C@@H](CC(=O)N(CCO)Cc2ccccc2)C/C=C\CC[C@@H]1Cc1ccc(F)cc1	.	.	.	1	0.0%	-0.6%	-0.7
COc1ccc(N(CC(=O)NCCSc2ccccn2)S(=O)(=O)c2ccccc2)cc1OC	9	15%	1.9	14	.	1.2%	-0.3
Clc1ccc(CN2CCN(c3ncnc4scc(-c5cccs5)c34)CC2)cc1	-2	-13%	2.2	-5	-12%	2.0%	0.6
COc1ccc(OC)c2[nH]c(=O)c(CCNC(C)=O)cc12	14	20%	3.2	39	-2.7%	2.6%	-0.7
CN(C)c1ncc2nc(-c3cc(F)cc(F)c3)c(=O)n(C[C@H]3CCCO3)c2n1	.	7%	-9.9	.	.	5.8%	.
COc1ccc(OCc2ccc(C(=O)NN)cc2)cc1	3	3%	5.8	21	-0.7%	?	0.0
O=c1c2c(nc3n1CCS3)c1cc(F)ccc1n2Cc1cc(=O)n2cc(Cl)ccc2n1	-5	15%	-0.7	-23	-3.4%	0.9%	0.3
CCCc1c(OCCCOc2ccc(OCC(=O)O)cc2)ccc(C(C)=O)c1O	1	.	-2.9	9	-1.3%	1.0%	-0.2
CC(=O)C1=C(C)N(Cc2ccccc2)C(=O)N[C@H]1c1cccc(F)c1	.	8%	-2.1[11.7 µM]	17	1.2%	4.3%	-0.4
Cn1c(=O)c(-c2ccc(F)c(F)c2)nc2cncnc21	.	6%	15	.	.	-0.9%	.
CCCCOc1ccc(C(C)NC(=O)CCS(=O)(=O)Cc2ccccc2Cl)cc1 (stereo not given)	0	16%	6.9	4	1.5%	14%	16
Cc1cc(-c2ccc(Br)cc2)n2nc(C)cc2n1	.	.	.	17	-1.9%	-0.4%	-1.2
Cc1cc(C)c(NC(=O)c2c(C)nn(-c3ccc(F)cc3)c2-n2cccc2)c(C)c1	.	.	.	-7	-0.2%	-0.6%	5.5
O=C(c1ccc(Br)o1)N1CCN(CCOc2ccccc2)CC1	-7	15%	-2.3	?	.	-0.4%	0.1
CCCCn1c(SCC(=O)NCc2ccco2)nc2ccc(N3CCOCC3)cc2c1=O	1	45µM*	4.0	-4	-9.7%	2.7%[38.3 µM]	0.1
Cc1ccccc1N1C(S)=C(C#N)C(=O)NC1c1cccs1 (stereo not given)	22	6%	0.3	-6	-0.2%	0.6%	-0.7
O=C(Nc1ccc2ccccc2c1)C(c1ccccc1)C1CCCC1 (stereo not given)	4	10%	0.7	-26	-13%	6.8%	1.1
COc1cccc(C(=O)NCC2CCCN2S(=O)(=O)c2cccs2)c1 (stereo not given)	12	.	.	-7	-1.6%	-0.3%	-0.5
O=CN1CCN(C(C(=O)NC2CCCCC2)c2cc3c(cc2[N+](=O)[O-])OCO3)CC1 (stereo not given)	-6	?	3.9	6	.	1.4%	0.2
Cc1cccc(-n2c(O)cnc2Nc2nc(C)cc(C)n2)c1	-3	-11%	0.3	1	.	1.9%	3.5
COc1ccc(/C=C/C(=O)c2ccc3c4c(cccc24)CC3)cc1	6	?	6.5	5	0.4%	-2.4%	0.7
Cc1cc(O)cc(O)c1/C=N/NC(=O)c1ccc2c(c1)OCCO2	.	.	.	1	5.1%	-0.4%	-0.6
CCOc1ccc(NC(=O)CN2CCN(CC(=O)c3ccc(OCC)cc3)CC2)cc1	.	-6%	2.3	-2	1.0%	0.9%	-0.8
Cc1cc(C)n(-c2nc(-c3ccc(Cl)c(Cl)c3)cs2)n1	-2	13%	2.7	3	-2.9%	4.2%	0.4

Filtered by structure, the compounds so far with a tert-butyl group
SMILES	TRPV1 PAM	Sfp inh	Menin MLL FP FL	TRPML1 blocker	ClpP mod	PINK1 expr mod	TRPML1 ag
Cc1ccc(-n2c(=O)c3c4c(sc3n(CC(=O)C(C)(C)C)c2=O)CCCCC4)cc1C	.	.	.	13	1.8%	0.4%	1.3
CCCC1C(C#N)=C(N)Oc2n[nH]c(C(C)(C)C)c21 (stereo not given)	5	1%	1.0	3	1.7%	-0.4%	1.1
